LANA-H2B inh: blockers of LANA interaction with H2A/H2B – biochemical, FP readout, HTS, primary screen; cell-free LANA-H2A/H2B peptide, fluorescence polarization; inhibition, % (test concentration not listed); hit rate 0.6% among 320,000; in the data active = inhibition mostly above about 10%, no sharp cut-off; inactive = mostly below about 6.7%;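 note: stock transfer was 7.5 nL into about 10 µL; 0% = median of vehicle wells and 100% = median of positive control wells; one replicate is shown; the record names a cut of 25% in any replicate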
Target sequence (Q9QR71 whole entry, looked up): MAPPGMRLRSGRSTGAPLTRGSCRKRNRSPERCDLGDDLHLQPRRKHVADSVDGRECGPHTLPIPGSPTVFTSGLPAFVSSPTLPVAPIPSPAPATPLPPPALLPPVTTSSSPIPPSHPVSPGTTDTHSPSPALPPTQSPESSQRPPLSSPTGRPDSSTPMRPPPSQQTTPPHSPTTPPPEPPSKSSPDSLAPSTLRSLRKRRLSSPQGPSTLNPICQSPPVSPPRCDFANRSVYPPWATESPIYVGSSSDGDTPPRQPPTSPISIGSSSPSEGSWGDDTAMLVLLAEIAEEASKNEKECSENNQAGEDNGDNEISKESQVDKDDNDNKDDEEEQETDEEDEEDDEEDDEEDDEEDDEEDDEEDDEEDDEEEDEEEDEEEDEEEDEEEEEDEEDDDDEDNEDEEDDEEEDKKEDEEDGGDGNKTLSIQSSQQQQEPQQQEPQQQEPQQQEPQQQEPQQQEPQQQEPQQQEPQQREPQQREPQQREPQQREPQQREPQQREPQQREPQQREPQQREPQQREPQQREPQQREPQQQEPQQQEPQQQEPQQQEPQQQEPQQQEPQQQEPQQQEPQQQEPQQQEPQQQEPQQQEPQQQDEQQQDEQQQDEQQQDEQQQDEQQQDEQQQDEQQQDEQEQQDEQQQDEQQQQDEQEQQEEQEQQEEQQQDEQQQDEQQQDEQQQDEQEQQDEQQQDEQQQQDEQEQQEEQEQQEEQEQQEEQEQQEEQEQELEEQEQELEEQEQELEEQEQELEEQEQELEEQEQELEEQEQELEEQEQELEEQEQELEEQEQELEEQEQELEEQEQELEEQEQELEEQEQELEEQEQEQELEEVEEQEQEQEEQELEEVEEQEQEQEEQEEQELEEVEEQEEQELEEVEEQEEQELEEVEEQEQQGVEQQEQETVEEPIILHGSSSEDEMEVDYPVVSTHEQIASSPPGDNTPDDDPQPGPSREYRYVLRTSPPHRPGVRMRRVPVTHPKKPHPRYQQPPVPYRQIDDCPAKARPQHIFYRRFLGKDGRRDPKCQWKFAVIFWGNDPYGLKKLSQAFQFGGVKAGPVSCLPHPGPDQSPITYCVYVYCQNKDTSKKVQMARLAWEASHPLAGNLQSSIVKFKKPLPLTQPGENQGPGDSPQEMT
RanGTP-Imp inh: inhibitors of RanGTP-importin-beta interaction, primary screen, biochemical, FRET, CFP-Ran, YFP-importin-beta, homogeneous. hit rate 1.1% among 300,000. Ran GTPase (GTP-bound) - importin-beta complex. cell-free CFP-Ran/YFP-importin-beta FRET ratio. inhibition, % (test concentration not listed);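 active = most replicates above 15%; inconclusive = exactly half above 15%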;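 note: 0% = DMSO wells and 100% = Ran loaded with GDP instead of GTP; wells of about 40 µL received 100 nL stock; the first replicate is given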
Bfl-1 A1 inh: caspase 3/7 activation in MEF A1-2A-BIM cells, primary screen, A1 inhibitor project, cell-based, luminescence, HTS; Caspase-Glo 3/7 luminescence, 3 h; percent of clofoctol response, vehicle zero; caspase activation, % (no concentration beside the values); hit rate 0.066% among 330,000;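 active = over half of replicate activation scores above 10%, or exactly half above 10 with the replicate mean above 10; inconclusive = replicate mean below 10 yet half the replicates above 10; inactive = over half of replicates below 10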;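 note: wells of about 30 µL received 50 nL stock; many hits fall short of the cut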
Calb FLC: C. albicans growth inhibition with fluconazole, primary screen, CaCi-2 strain, Alamar Blue fluorescence. C. albicans CaCi-2 (fluconazole-resistant clinical isolate) + fluconazole, 48 h. growth inhibition, % (concentration not given with the values). hit rate 0.57% among 300,000. AID 1979, 2009;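 active = most replicates above 75%; inconclusive = exactly half above 75%; inactive = most below 75%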;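 note: all wells also contain fluconazole at 8 µg/ml as a sub-toxic cotreatment; 0% = median of DMSO wells and 100% = median of geldanamycin control wells; wells of about 8 µL received 7.5 nL stock; the first replicate is given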
T cruzi repl: inhibitors of intracellular T. cruzi growth, primary screen, luminescence, NIH3T3 host cells. T. cruzi beta-gal in NIH3T3, 90 h. inhibition, % (concentration not given with the values). hit rate 1.4% among 300,000. AID 1885, 2009;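 active = mean inhibition across valid replicates above about 55%, limit read from the data; inconclusive = mean below that limit but half or more replicates reach it; inactive = mean below it, under half of replicates reach it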;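 note: signal also drops with host cell toxicity which is not excluded here; 0% = plate median of DMSO wells and 100% = zero luminescence signal; higher percent means less beta-gal luminescence so fewer parasites; stock transfer was 50 nL into about 50 µL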
Beta apoptosis: inhibitors of cytokine-induced beta cell apoptosis, primary screen, luminescence | INS-1E cytokine-induced death, ATP luminescence, 48 h; percent of positive-control rescue, neutral wells zero | protection from apoptosis, % (concentration not given with the values) | hit rate 0.8% among 300,000;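 active = all replicates at 75% or more, or half of them and the mean; inconclusive = half reach 75% but not the mean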;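 note: 0% = cytokine-treated negative control wells and 100% = positive control rescue; higher means more ATP so stronger rescue from cytokine killing; wells of about 40 µL received 100 nL stock; the first replicate is given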
UCH37 inh: inhibitors of human UCH37 deubiquitinase, primary screen, biochemical, Ub-AMC cleavage, fluorescence. Ubiquitin carboxyl-terminal hydrolase isozyme L5 (Homo sapiens), Q9Y5K5. purified proteasome/UCH37. inhibition, % (no concentration beside the values). hit rate 0.33% among 330,000. AID 588478, 2011;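 active = mean of two replicates above 20%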;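 note: 0% = compound-free wells with enzyme and 100% = wells lacking proteasome; stock transfer was 100 nL into about 20 µL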
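Reagent: Ub-AMC substrate; assay system: Proteasome-associated human UCH37 deubiquitinase; controls: no-proteasome and no-compound wells; read-out: % inhibition of Ub-AMC cleavage fluorescence; timing: 30 min preincubation with enzyme, 25 min cleavage at room temperature; signal: AMC fluorescence from Ub-AMC cleavage, excitation 355 nm, emission 460 nm; buffer or medium: Tris-HCl pH 7.4 plus ovalbumin, ATP-MgCl2, DTT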
B2AR ag: beta2AR agonists driving receptor internalization, primary screen, cell-based, FAP fluorogen, flow cytometry; Beta-2 adrenergic receptor (Homo sapiens), P07550; Am2.2-beta2AR cells; reference of the scale not given here; response, % (test concentration not listed); hit rate 0.43% among 340,000; AID 504454, 2011;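 active = response above a set limit, near 3 SD of response in nonfluorescent compounds, cut at about 42% in these data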;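 note: stock transfer was 100 nL into about 11 µL; a reference agonist was the positive control; negative values mostly stem from fluorescent compounds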
* hit, by the source's call.

How did O=C(Nc1ccccn1)c1sc2cccc(F)c2c1Cl do in these assays?
LANA-H2B inh: 5.2; Bfl-1 A1 inh: -8.4; Calb FLC: -12; Beta apoptosis: 3; UCH37 inh: -9.7; B2AR ag: 3

Results for COC(=O)c1sccc1NC(=O)CSc1cc(Cl)ccc1Cl ?
LANA-H2B inh: 5.8; RanGTP-Imp inh: 1.1; Bfl-1 A1 inh: -0.2; Calb FLC: -7; T cruzi repl: -7; Beta apoptosis: -13; UCH37 inh: 2.8; B2AR ag: 10

What do the screens show for `CCn1c(C)nc2cc(C(=O)NNC(=O)Nc3ccc(Cl)cc3)ccc21`?
LANA-H2B inh: 3.5; RanGTP-Imp inh: 3.6; Bfl-1 A1 inh: 0.0; Calb FLC: 16; T cruzi repl: -10; Beta apoptosis: 2; UCH37 inh: 0.9; B2AR ag: 0

How did CC(C)(C)C1=Nn2c(nnc2C2CCCCC2)SC1 do in these assays?
LANA-H2B inh: 1.6; RanGTP-Imp inh: -4.5; Bfl-1 A1 inh: 0.0; Calb FLC: 25; T cruzi repl: 14; Beta apoptosis: -5; UCH37 inh: 2.9; B2AR ag: -7

How did CN=c1scc(-c2cccs2)n1/N=C/c1ccccc1O do in these assays?
LANA-H2B inh: 0.1; RanGTP-Imp inh: -2.5; Bfl-1 A1 inh: -1.1; Calb FLC: 1; T cruzi repl: 7; Beta apoptosis: 10; B2AR ag: -6

What do the screens show for `C=C(C)CC(NCc1ccco1)c1ccc(OC)cc1` (stereo not given)?
LANA-H2B inh: -1.4; RanGTP-Imp inh: 4.2; Bfl-1 A1 inh: -0.3; Calb FLC: 4; T cruzi repl: -16; UCH37 inh: 1.8; B2AR ag: 21

How did Cc1[nH]nc2c1C(C(C)c1ccccc1)C(C#N)=C(N)O2 (stereo not given) do in these assays?
LANA-H2B inh: 0.9; RanGTP-Imp inh: inconclusive; Bfl-1 A1 inh: -0.7; Calb FLC: 4; T cruzi repl: 4; Beta apoptosis: -3; UCH37 inh: -1.3; B2AR ag: 9

Results for Cc1cc(-c2ccccc2)oc(=O)c1NC(=O)c1ccccc1 ?
LANA-H2B inh: -9.4; RanGTP-Imp inh: -2.7; Bfl-1 A1 inh: 0.0; Calb FLC: -4; T cruzi repl: 5; Beta apoptosis: -5; UCH37 inh: 7.4; B2AR ag: -6

Results for CCN(CC(=O)Nc1ccc(OC)cc1)C(=O)Cc1cccs1 ?
LANA-H2B inh: 1.5; RanGTP-Imp inh: 4.4; Bfl-1 A1 inh: -0.4; Calb FLC: -3; T cruzi repl: -5; Beta apoptosis: 2; UCH37 inh: 1.7; B2AR ag: 1

Results for O=C(CCCCCn1c(=S)[nH]c2ccsc2c1=O)NC1CCCCC1 ?
LANA-H2B inh: 1.4; RanGTP-Imp inh: 2.3; Bfl-1 A1 inh: 3.7; Calb FLC: -4; T cruzi repl: 4; UCH37 inh: 5.5; B2AR ag: -13

Results for C=CCNC(=O)C1CCN(c2cc(C)nc(-c3ccccc3)n2)CC1 ?
LANA-H2B inh: -0.1; RanGTP-Imp inh: -1.5; Bfl-1 A1 inh: 0.4; Calb FLC: -20; T cruzi repl: -7; Beta apoptosis: 0; UCH37 inh: -1.0; B2AR ag: 1

How did COc1ccc(/C=C/C(=O)N2CCN(S(=O)(=O)c3ccccc3Br)CC2)cc1OC do in these assays?
LANA-H2B inh: 3.9; Bfl-1 A1 inh: -0.1; Beta apoptosis: -1; UCH37 inh: -7.6; B2AR ag: 21

Among those listed so far, these contain two or more sulfur atoms:
Results for COC(=O)c1sccc1NC(=O)CSc1cc(Cl)ccc1Cl ?
LANA-H2B inh: 5.8; RanGTP-Imp inh: 1.1; Bfl-1 A1 inh: -0.2; Calb FLC: -7; T cruzi repl: -7; Beta apoptosis: -13; UCH37 inh: 2.8; B2AR ag: 10

How did CN=c1scc(-c2cccs2)n1/N=C/c1ccccc1O do in these assays?
LANA-H2B inh: 0.1; RanGTP-Imp inh: -2.5; Bfl-1 A1 inh: -1.1; Calb FLC: 1; T cruzi repl: 7; Beta apoptosis: 10; B2AR ag: -6

Results for O=C(CCCCCn1c(=S)[nH]c2ccsc2c1=O)NC1CCCCC1 ?
LANA-H2B inh: 1.4; RanGTP-Imp inh: 2.3; Bfl-1 A1 inh: 3.7; Calb FLC: -4; T cruzi repl: 4; UCH37 inh: 5.5; B2AR ag: -13

Continued.
Results for Cc1nnc(N(Cc2ccccc2)C(=O)c2cnccn2)s1 ?
LANA-H2B inh: -3.0; RanGTP-Imp inh: -0.3; Bfl-1 A1 inh: 0.1; Calb FLC: 20; T cruzi repl: -16; Beta apoptosis: -3; UCH37 inh: 2.9; B2AR ag: -11

How did CN1CCN(C(=O)C2=C[C@@H](c3ccccc3)C[C@@H](OCCCCO)O2)CC1 do in these assays?
LANA-H2B inh: 4.9; RanGTP-Imp inh: 1.6; Bfl-1 A1 inh: 1.2; Calb FLC: -14; T cruzi repl: -4; Beta apoptosis: -3; UCH37 inh: 2.7; B2AR ag: -2

Results for CCOC(=O)[C@H]1[C@H]2COc3ccc(Br)cc3[C@@H]2N2C(=O)N(c3ccc(F)cc3)C(=O)[C@@]12C ?
LANA-H2B inh: 2.7; Bfl-1 A1 inh: 0.7; Beta apoptosis: -6; UCH37 inh: -1.7; B2AR ag: -28

Results for CCN(C(=O)Cn1nc(C)c([N+](=O)[O-])c1C)C1CCS(=O)(=O)C1 (stereo not given) ?
LANA-H2B inh: -1.4; RanGTP-Imp inh: 3.9; Bfl-1 A1 inh: 0.2; Calb FLC: -6; T cruzi repl: -15; Beta apoptosis: -2; UCH37 inh: 2.0; B2AR ag: -4

How did O=C1NC(=Nc2ccccc2)S/C1=C/c1cccs1 do in these assays?
LANA-H2B inh: 3.7; RanGTP-Imp inh: 2.0; Bfl-1 A1 inh: -2.7; Calb FLC: inconclusive; T cruzi repl: 1; Beta apoptosis: -2; UCH37 inh: 1.3; B2AR ag: -12

Results for O=C1C=C(c2cc3ccccc3s2)C[C@@H](c2ccc(Cl)cc2)C1 ?
LANA-H2B inh: 3.6; Bfl-1 A1 inh: -0.2; Beta apoptosis: -1; UCH37 inh: 5.7; B2AR ag: 2

Results for O=C(NCCCc1ccccc1)C(=O)NCC1OCCN1S(=O)(=O)c1ccc(F)cc1 (stereo not given) ?
LANA-H2B inh: 1.4; RanGTP-Imp inh: 0.0; Bfl-1 A1 inh: -0.1; Calb FLC: 0; T cruzi repl: 2; Beta apoptosis: -2; UCH37 inh: 3.1; B2AR ag: -6

What do the screens show for `CCOc1ccc2nc(NCCCO)[nH]c2c1`?
LANA-H2B inh: 0.5; RanGTP-Imp inh: -1.6; Bfl-1 A1 inh: 0.0; Calb FLC: 13; T cruzi repl: 5; Beta apoptosis: -2; UCH37 inh: 0.5; B2AR ag: -1

How did CC(C)(Oc1ccc(Cl)cc1)C(=O)N1CCC(C(N)=O)CC1 do in these assays?
LANA-H2B inh: 2.9; RanGTP-Imp inh: -1.9; Bfl-1 A1 inh: 1.0; Calb FLC: -9; T cruzi repl: -4; Beta apoptosis: -5; UCH37 inh: 2.0; B2AR ag: -1

How did O=C(OCc1nc2scc(-c3ccccc3)c2c(=O)[nH]1)c1ccco1 do in these assays?
LANA-H2B inh: 0.8; RanGTP-Imp inh: -5.1; Bfl-1 A1 inh: -0.8; Calb FLC: 13; T cruzi repl: -15; Beta apoptosis: -4; UCH37 inh: 0.1; B2AR ag: -2

How did Cc1ccc2cc(C)c(SCC(=O)NCc3ccco3)nc2c1 do in these assays?
LANA-H2B inh: 3.4; RanGTP-Imp inh: -0.3; Bfl-1 A1 inh: 1.1; Calb FLC: -2; T cruzi repl: 21; Beta apoptosis: -5; UCH37 inh: 2.4; B2AR ag: -4

Results for Cc1ccc2c(c1)nnn2C1CCN(CC(=O)N(c2ccccc2)c2ccccc2)CC1 ?
LANA-H2B inh: 7.4; RanGTP-Imp inh: -0.3; Bfl-1 A1 inh: 1.5; Calb FLC: 2; T cruzi repl: -5; Beta apoptosis: 0; B2AR ag: 10

How did Cn1cccc1Cc1nnc(SCC(=O)NCCc2ccccc2)n1-c1ccc(F)cc1 do in these assays?
LANA-H2B inh: -0.2; RanGTP-Imp inh: -6.4; Bfl-1 A1 inh: -0.1; Calb FLC: -2; T cruzi repl: 3; Beta apoptosis: 0; UCH37 inh: 2.5; B2AR ag: -7

What do the screens show for `CCN(CC(=O)Nc1c(F)cccc1F)C(=O)c1cc2ccccc2oc1=O`?
RanGTP-Imp inh: -0.6; Bfl-1 A1 inh: -0.7; Calb FLC: 3; T cruzi repl: -16; Beta apoptosis: -2; UCH37 inh: -1.4; B2AR ag: -2

What do the screens show for `O=C(O)/C=C/c1cn(Cc2ccccc2Cl)nc1-c1ccccc1`?
LANA-H2B inh: 1.2; RanGTP-Imp inh: -2.0; Bfl-1 A1 inh: 0.7; Calb FLC: 7; T cruzi repl: -9; Beta apoptosis: 4; UCH37 inh: 0.9; B2AR ag: 7

Results for Cc1cccc(CC(=O)Nc2cc(C)c3c(=O)oc4ccccc4c3n2)c1 ?
LANA-H2B inh: -3.8; RanGTP-Imp inh: inconclusive; Bfl-1 A1 inh: -0.4; Calb FLC: 1; T cruzi repl: 12; Beta apoptosis: 16; UCH37 inh: -0.8; B2AR ag: 5

What do the screens show for `O=C(CNCCc1ccccc1)Nc1ccc(C(=O)N2CCCCC2)cc1`?
LANA-H2B inh: -1.4; RanGTP-Imp inh: 0.5; Bfl-1 A1 inh: 0.7; Calb FLC: 5; T cruzi repl: 36; Beta apoptosis: -3; UCH37 inh: 2.7; B2AR ag: -5

What do the screens show for `CCCCC1=CC2=CC(=O)C(C)(OC(=O)CC)C(=O)C2=CN1Cc1ccco1` (stereo not given)?
LANA-H2B inh: 2.7; RanGTP-Imp inh: 3.5; Bfl-1 A1 inh: 0.0; Calb FLC: -7; T cruzi repl: 2; Beta apoptosis: -2; UCH37 inh: 2.9; B2AR ag: -2

How did COc1ccc(/C=N/Nc2ncnc3sc4c(c23)CCCC4)cc1O do in these assays?
LANA-H2B inh: -1.6; RanGTP-Imp inh: 3.2; Bfl-1 A1 inh: -2.2; Calb FLC: 19; T cruzi repl: 0; Beta apoptosis: -14; B2AR ag: 11

How did CCOC(=O)c1cnc(-n2cc(C)cn2)nc1Nc1ccccc1OC do in these assays?
LANA-H2B inh: -2.5; RanGTP-Imp inh: inconclusive; Bfl-1 A1 inh: 0.5; Calb FLC: 64; T cruzi repl: 37; Beta apoptosis: 3; UCH37 inh: 2.5; B2AR ag: -7
